Assay outcomes from PubChem BioAssay.
NPYLR7 ag: activates Aedes aegypti NPYLR7 receptor; activation, % at 10 µM; HEK293T NPYLR7/Galpha15, GCaMP6s calcium fluorescence; AID 1259423; 270,000 tested, 0.15% active; in the data active means activation above about 40%;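 further: 0% = vehicle and 100% = reference agonist at the receptor; some compounds past the cut are filed as inactive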
NPYLR7 ag max-min: also measured in NPYLR7 ag; calls as there; activation, %; measured here: Max-Min RFU normalised activation; some inactives read as strong as hits;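 span of the calcium signal over five minutes; 0% = vehicle and 100% = native peptide agonist; compound fluorescence can raise it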
* hit, by the source's call; & = joins results of further samples. A portion of the library (hit frequency here may not be typical).

Start of the data: the first 3 records (preview)
Sequence of screens: NPYLR7 ag	NPYLR7 ag max-min
> CNC(=O)CN([C@@H]1C[C@@H]2CO[C@H](c3ccccc3)C[C@@H]2C1)S(=O)(=O)c1ccccc1
 : 15	24
> CC1(C)SCC2C(=O)N3C(CSC3(C)C)C(=O)N21 (centres undefined)
 : 1	-3
> CCOC(=O)c1cnn(-c2cc(C)nc3c(C)c(-c4ccc(OC)c(OC)c4)nn23)c1N
 : 6	12

Main list, from the first entry:
Sequence of screens: NPYLR7 ag	NPYLR7 ag max-min
> CNC(=O)CN([C@@H]1C[C@@H]2CO[C@H](c3ccccc3)C[C@@H]2C1)S(=O)(=O)c1ccccc1
 : 15	24
> CC1(C)SCC2C(=O)N3C(CSC3(C)C)C(=O)N21 (centres undefined)
 : 1	-3
> CCOC(=O)c1cnn(-c2cc(C)nc3c(C)c(-c4ccc(OC)c(OC)c4)nn23)c1N
 : 6	12
> CCOC(=O)c1c(C)n(-c2ccccc2)c2ccc(OC(C)=O)cc12
 : 0	1
> O=S(=O)(c1ccccc1)N1CCN(c2ccc(Cl)c(Cl)c2)CC1
 : -1	-3
> Cc1csc(NC(=O)c2ccnc(N(C)C)c2)n1
 : 1	-1
> CCn1c(C)cc(C(=O)OCC(=O)Nc2ccc(S(C)(=O)=O)cc2)c1C
 : 15	12
> CN(Cc1cccs1)C(=O)CSc1nnnn1C1CCCC1
 : 15	14
> CC1CN(c2ccc(NC(=O)CCc3cccs3)cn2)CC(C)O1 (centres undefined)
 : 5	4
> COC(=O)CCCC(=O)N1CCN(c2nccc(-c3ccco3)n2)CC1
 : -7	-11
> O=C(c1cc(S(=O)(=O)N2CCCC2)ccc1Cl)N1CCOCC1
 : 3	-1
> O=C(NCc1ccco1)N1CCC2(CCCN(Cc3ccc(F)cc3)C2=O)C1 (centres undefined)
 : 2	0
> CCc1c(C)nn(-c2ccc(C(=O)N(CC(C)C)CC(C)C)cc2)c1C
 : -5	-6
> O=C(COc1ccc(Cl)cc1Cl)NNC(=O)C1=COCCO1
 : 14	12
> COc1ccc(CNC(=O)c2cn(Cc3ccccc3F)c(=O)s2)cc1
 : 18	7
> O=C(NC(C(=O)N1CCCCC1)C1CCN(C(=O)c2ccccc2F)CC1)C1CC1 (centres undefined)
 : 14	16
> COc1ccc(C(=O)C2CCCN(Cc3cc4ccccc4[nH]3)C2)c(OC)c1 (centres undefined)
 : 5	1
> Cc1nn(CCC(=O)Nc2ccccc2)c(=O)c(C#N)c1C
 : -1	-2
> COc1ccc(C2C(C(=O)OCc3ccccc3)=C(C)NC3=C2C(=O)CCC3)cc1OC (centres undefined)
 : 4	1
> Cc1ccc(-n2nc(-c3ccc(Cl)cc3)cc2NC(=O)c2ccc(C(C)(C)C)cc2)cc1
 : -2	-2
> COCCN1C(=O)NC(c2ccccc2Cl)C(C(=O)OC)=C1C (centres undefined)
 : 25	20
> Cc1[nH]ncc1C(=O)N1CCc2c(F)ccc(F)c2C1
 : -6	-8
> O=P(Nc1ccccc1)(Nc1ccccc1)c1ccccc1
 : 9	7
> COc1cc2ncnc(Sc3nnc(C)s3)c2cc1OC
 : -4	-5
> O=C(NCC1Cc2cc(F)cc(F)c2O1)c1cccnc1Cl (centres undefined)
 : 6	16
> CCOC(=O)CCC(=O)Nc1ccccc1C1SCC(=O)N1c1cc(F)ccc1F (centres undefined)
 : -1	7
> N#CC(=Cc1ccc(C#N)cc1)c1nnc2n1CCCCC2
 : -6	-5
> CNS(=O)(=O)c1ccc(Cl)c(C(=O)N2CCN(C(=O)c3ccco3)CC2)c1
 : 2	1
> CCSc1nc(CC(=O)NCCC2CCCCN2C)cs1 (centres undefined)
 : -10	-11
> CN(CC(=O)NCc1ccc(F)cc1)S(=O)(=O)c1cccc2cnccc12
 : 7	0

Next part:
Sequence of screens: NPYLR7 ag	NPYLR7 ag max-min
> Cc1cccc(CN2CCCC3(CCN(Cc4ccc(-c5ccn[nH]5)o4)C3)C2)c1 (centres undefined)
 : 5	0
> Cc1cc(C(=O)NCC2Cc3cc(Oc4ccccc4)ccc3O2)ccc1Br (centres undefined)
 : 11	11
> COc1cc2[nH]c(=O)n(CC(c3cccs3)N(C)C)c(=O)c2cc1OC (centres undefined)
 : 3	0
> COc1ccc(S(=O)(=O)N2CCN(CC(OCc3c(F)cccc3F)c3ccc(Cl)cc3)CC2)cc1OC (centres undefined)
 : 0	13
> COc1ccc(Cl)c2sc(N(Cc3cccnc3)C(=O)c3ccc(F)cc3)nc12
 : 13	8
> C=CCN(CC(=O)N1CCc2sccc2C1COc1cccc(F)c1)C(=O)Nc1cccc(Cl)c1 (centres undefined)
 : -2	0
> NC(=O)c1c(NC(=O)c2cccs2)sc2c1CCCC2
 : 11	5
> CC(=NOCC(=O)N=Nc1c(O)n(CN2CCCCC2)c2ccccc12)c1cccs1
 : 2	-2
> CCOC(=O)N1CCN(S(=O)(=O)c2c(C)nc3sccn3c2=O)CC1
 : 2	1
> Cc1ccc(Cc2nsc(Oc3cc(C(=O)NC(Cc4ccccc4)c4ccccc4)ccc3C)n2)cc1 (centres undefined)
 : 7	5
> O=C(NC(C(=O)N1CCOCC1)C1CCN(C(=O)C2CCCC2)CC1)c1ccccc1 (centres undefined)
 : 5	5
> CC(=O)Oc1ccccc1CSc1nc2cc(S(=O)(=O)N3CCOCC3)ccc2n1CC1CCCO1 (centres undefined)
 : 4	2
> O=C(CSc1nc2sc3c(c2c(=O)n1Cc1ccco1)CCC3)NCC1CCCO1 (centres undefined)
 : 4	-2
> O=C(O)[C@@H](S)[C@@H](S)C(=O)O
 : -2	-8
> Cc1nn(C2CCS(=O)(=O)C2)c2nc(-c3ccc(F)cc3)cc(C(=O)N3CCCC3)c12 (centres undefined)
 : 1	6
> COC(=O)N[C@H]1[C@H](OC(=O)c2ccccc2)[C@@H]2O[C@H]1c1ccccc12
 : 8	13
> COc1ccc(NC(=O)CSc2nnc(CNC(=O)c3cccs3)n2-c2ccc(F)cc2)cc1
 : 10	12
> CCCCCCCC(=O)NC(Cc1ccccc1)C(=O)Nc1nnc(-c2cccc(Cl)c2)s1 (centres undefined)
 : 15	13
> CN(C)CC1(O)CCCN(C(=O)Cc2ccc3c(c2)OCO3)CC1 (centres undefined)
 : 8	5
> CCn1ccnc1CN1CCCC(CNS(=O)(=O)c2cccc3cccnc23)C1 (centres undefined)
 : 19	8
> O=C(C1CC1)N1C[C@H]2CNC[C@@]2(C(=O)NCc2cn3c(n2)SCC3)C1
 : 19	9
> CCOc1ccc2c(c1)c(=O)c(S(=O)(=O)c1ccccc1)cn2Cc1ccccc1C
 : -8	-13
> O=C(c1cscn1)N1CCCC(CCc2ccccc2C(F)(F)F)C1 (centres undefined)
 : 5	2
> O=c1oc2ccccc2n1CN1CCC(c2nnc3ccccn23)CC1
 : 7	2
> O=C(CSc1nc2[nH]ncc2c(=O)[nH]1)Nc1cccc2ccccc12
 : -1	-3
> CCN1CCN(C(=O)c2cc(-c3cccc(OC)c3)nc3cc(-c4ccccc4)nn23)CC1
 : -7	-5
> CCc1c(C(=O)N2CCCC(CNC(C)=O)C2)csc1C (centres undefined)
 : 0	-3
> CCn1c(SCC(=O)N/N=C\c2cccnc2)nc2ccccc21
 : 0	5
> O=C(CC1(c2cccc(F)c2)CC(=O)N(C2CCCC2)C1=O)N1CCCC(OCc2ccccc2)C1 (centres undefined)
 : 11	-4
> CN(C)CCn1c2c(c(SCC(=O)Nc3cccc4ccccc34)nc1=O)CCC2
 : -1	-4

Quoted at random: 6 records from the list
Sequence of screens: NPYLR7 ag	NPYLR7 ag max-min
> O=C(COc1ccc(Cl)cc1Cl)NNC(=O)C1=COCCO1
 : 14	12
> CN(C)CC1(O)CCCN(C(=O)Cc2ccc3c(c2)OCO3)CC1 (centres undefined)
 : 8	5
> CN(C)CCn1c2c(c(SCC(=O)Nc3cccc4ccccc34)nc1=O)CCC2
 : -1	-4
> CCOc1ccc2c(c1)c(=O)c(S(=O)(=O)c1ccccc1)cn2Cc1ccccc1C
 : -8	-13
> CCn1c(SCC(=O)N/N=C\c2cccnc2)nc2ccccc21
 : 0	5
> O=C(NCc1ccco1)N1CCC2(CCCN(Cc3ccc(F)cc3)C2=O)C1 (centres undefined)
 : 2	0

2 of the compounds above, in markdown:
| molecule | NPYLR7 ag | NPYLR7 ag max-min |
| --- | --- | --- |
| CCc1c(C(=O)N2CCCC(CNC(C)=O)C2)csc1C (centres undefined) | 0 | -3 |
| O=C(CSc1nc2[nH]ncc2c(=O)[nH]1)Nc1cccc2ccccc12 | -1 | -3 |

Next structures follow.
Sequence of screens: NPYLR7 ag	NPYLR7 ag max-min
> O=C(N=C1N=C2C=CC(Br)=CN2Cc2ccccc21)c1ccc(C(=O)c2ccccc2)cc1
 : -6	-12
> COc1cc(N=Cc2c(O)n(-c3ccc(OC)c(OC)c3)c(=O)c3ccccc23)cc(OC)c1
 : -2	-6
> COc1ccc(-n2nnc3c(SCc4cccc(F)c4)ncnc32)cc1
 : 4	14
> CCCNC(=O)c1cc(NC(=O)Nc2cccc(C(F)(F)F)c2)ccc1N1CCCC1
 : 13	23
> O=S(=O)(c1cccc(Cl)c1F)N1CCN(C(c2ccccc2)c2ccc(Br)cc2)CC1 (centres undefined)
 : 35	20
> C=CCn1c(=NC(=O)CN2C(=O)CCC2=O)sc2cccc(OC)c21
 : 1	-1
> CCOc1ccc(N2C(=O)CC(Nc3ccc(N4CCOCC4)cc3)C2=O)cc1 (centres undefined)
 : 3	1
> CCOC(=O)C1CCCN(C(=O)c2cccc(CSc3nc(C)c(C)c(N4CCN(c5cccc(C(F)(F)F)c5)CC4)n3)c2)C1 (centres undefined)
 : -7	-4
> C(=C\c1ccccc1)/CN1CCN(Cc2nc(-c3cccs3)no2)CC1
 : 2	2
> Cc1c(Cl)c(C(F)(F)F)nn1CC(=O)Nc1ccc2c(c1)OCO2
 : 15	19
> CN(Cc1nnc(-c2ccccc2)o1)C(=O)c1cn(CC2CCCCC2)nn1
 : 1	1
> O=C(c1cc2n(n1)CCN(Cc1ccc(Cl)cc1)C2=O)N1CCCC1
 : 0	4
> Cn1ccnc1C(O)(CC(=O)Nc1ncccc1O)C(F)(F)F (centres undefined)
 : 0	7
> CC1=CC(=NNc2ncc(Cl)cc2Cl)CC(C)(C)C1
 : 9	18
> Cc1ccccc1/[N+]([O-])=C/c1ccncc1
 : 25	21
> Cn1ncc([N+](=O)[O-])c1C(=O)Nc1ccc(Cl)cc1Cl
 : -9	-18
> COc1ccc(CN2CCN(Cc3nc4ccccc4s3)CC2CCO)c(C)c1C (centres undefined)
 : -7	-9
> Cc1sc2nc(COC(=O)c3cccc(O)c3)nc(N)c2c1C
 : 1	-1
> CCCC(=O)N(CCCN1CCOCC1)c1nc2ccc(Cl)cc2s1
 : -4	-6
> O=C(CSc1nc(=O)n(CCCO)c2c1CCC2)Nc1ccccc1F
 : 7	2
> CC(=O)NC1CCN(c2cc(N3CCOCC3)nc(N)n2)C1 (centres undefined)
 : 16	12
> CCc1nc2ccc(C(=O)NCCCn3ccnc3)cn2c1N(C=O)CCC(C)C
 : -1	-3
> Cc1ccc(N2CCN(C(=O)c3ccc4c(c3)OCO4)C(C)C2=O)cc1F (centres undefined)
 : 29	40
> CCNC(=O)N1CCN(C(=O)C(OC)c2ccccc2)CC1 (centres undefined)
 : 0	-1
> Nc1cc(N2CC(c3ccncc3)C2)nc(N)n1
 : 3	2
> CCc1nn2c(nnc3c(=O)n(NC(C)=O)ccc32)c1-c1ccc(Cl)cc1
 : 3	3
> Cc1cc(F)c(Nc2ncnc3cc(OCc4ccccc4)ccc23)cc1O
 : 5&-12	-4&-14
> Cc1cccc(COC2CCCN(C(=O)COc3ccc(Cl)cc3)C2)c1 (centres undefined)
 : 4	10
> CCOc1ccc(C(C2Sc3nc(C)nn3C2=O)N2CCN(c3ccccc3F)CC2)cc1 (centres undefined)
 : -2	-10
> Cn1c(N)c(S(=O)(=O)Nc2ccc(F)cc2)c(=O)n(C)c1=O
 : 2	-1

(continued)
Sequence of screens: NPYLR7 ag	NPYLR7 ag max-min
> COc1ccccc1CNC(=O)CSc1nc(=O)n(CCO)c2c1CCC2
 : -10	-18
> COc1cc(C2c3[nH]c4ccccc4c3CCN2C(=O)[C@H](C)OC(C)=O)ccc1Br (some centres undefined)
 : -6	-14
> O=C(CCNC(=O)C1CC(c2ccccc2)=NO1)NCc1ccncc1 (centres undefined)
 : -3	3
> C=CCNc1nnc(Sc2ncccc2[N+](=O)[O-])s1
 : -4	-7
> COCCNC(=O)c1cc(NC(=O)c2ccc(Cl)cc2Cl)ccc1N1CCC(Cc2ccccc2)CC1
 : 1	1
> CCCCOC(=O)c1cccc(NC(=O)c2cc3ccccc3oc2=O)c1
 : -1	-8
> Cc1ccc2c(c1)C(=O)C(=O)N2Cc1ccc(OCc2ccccc2)cc1
 : -3	3
> CN1CC2(CCN(C(=O)c3cc(=O)n(-c4ccccc4)[nH]3)C2)OC1=O (centres undefined)
 : 12	3
> COc1ccccc1N1C(=O)CC2CS(=O)(=O)CC21 (centres undefined)
 : -1	21
> COc1ccc2[nH]c3c(c2c1)CCN(C(=O)COc1ccc(C(C)(C)C)cc1)C3c1ccc(OCc2ccccc2)cc1 (centres undefined)
 : 11	2
> Cn1cc(-c2csc(C(C)(O)c3cccnc3)n2)cn1 (centres undefined)
 : 5	-1
> CCn1nccc1C(=O)N1CCC(c2n[nH]c(=O)n2-c2ccccc2)CC1
 : 5	4
> CSCCC(=O)N1CCCC(CNC(=O)c2ccc(F)cc2)C1 (centres undefined)
 : 11	4
> O=C(NCc1ccccc1Cn1cccn1)NC1CCOc2ccccc21 (centres undefined)
 : 2	20
> CC(=O)NN(c1ccccc1)C1CC(C)N(c2ccccc2)N1C(C)=O (centres undefined)
 : 1	2
> Cc1nc2c(OCc3ccc(Cl)cc3Cl)cccn2c1N(C)C(=O)C1CCCCC1
 : 10	1
